Screening results as filed in PubChem BioAssay.
NPYLR7 ag – activates Aedes aegypti NPYLR7 receptor | HEK293T NPYLR7/Galpha15, GCaMP6s calcium fluorescence | activation, % at 10 µM | 270,000 compounds, 0.15% hits; in the data active means activation above about 40%;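 further: 0% = vehicle and 100% = reference agonist at the receptor; some compounds past the cut are filed as inactive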
NPYLR7 ag max-min – also measured in NPYLR7 ag; calls as there; activation, %; measured here: Max-Min RFU normalised activation; some inactives read as strong as hits;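 span of the calcium signal over five minutes; 0% = vehicle and 100% = native peptide agonist; compound fluorescence can raise it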
* hit, by the source's call; & = joins results of further samples.

#	Molecule	NPYLR7 ag	NPYLR7 ag max-min
1	CCOc1ccc(NC(=O)N2CCc3cc(OC)c(OC)cc3C2CNC(=S)Nc2cccc(C)c2)cc1 (centres undefined)	0	10
2	O=C(NC1c2ccccc2CCC1n1ccnc1)c1cc(Cl)cc(Cl)c1 (centres undefined)	0	-2
3	O=C(NC1CCCCC1)c1ccc(Br)c(S(=O)(=O)N2CCCCC2)c1	5	4
4	Cc1cc(C(=O)NNC(=O)CCC(=O)c2cccs2)c(C)o1	0	-5
5	CCOC(=O)c1ccc(NC(=O)CSc2nnc(NC(=O)c3ccccc3)s2)cc1	-8	-6
6	c1ccc(NC2CCCN(Cc3cccn3-c3ccccn3)C2)cc1 (centres undefined)	-5	-6
7	CCOC(=O)C1(Cc2ccccc2Cl)CCN(Cc2ccccc2O)CC1	9	2
8	Cc1cccc(C(=O)N(CCN2CCOCC2)c2nc3c(F)cc(F)cc3s2)c1	10	3
9	O=C(c1cc2cccnc2n(-c2ccc(F)cc2)c1=O)N1CCC(O)(Cc2ccccc2)CC1	-1	-5
10	Cc1nc2c(c(=O)[nH]1)CCN(C(=O)c1ncccc1O)C2	4	1
11	Cc1ccc2ccccc2c1CN1CCN(c2ncnc3sc(C)c(C)c23)CC1	11	5
12	C(=N/Nc1nc(-c2ccccc2)c2ccccc2n1)/c1nc2ccccc2[nH]1	-15	-22
13	O=C(c1ccco1)N(Cc1cccs1)C1CCS(=O)(=O)C1 (centres undefined)	-2	-5
14	COc1ccc(N2C(=O)c3ccccc3NC2c2ccc3c(c2)c2ccccc2n3C)cc1 (centres undefined)	-5	-5
15	COc1cccc(C2c3[nH]c4ccccc4c3CCN2C(=O)C2=CCCC2)c1OC (centres undefined)	7	7
16	COCCNC(=O)c1nn(-c2cccc(OC)c2)c(=O)n(Cc2cccc(C)c2)c1=O	1	14
17	COc1ccccc1C1CN(CC(=O)NCc2cccc(C)n2)Cc2ccccc2O1 (centres undefined)	-2	-3
18	COc1ccccc1C(=O)C1CCCN(C(=O)Cc2cc(=O)oc3cc(C)ccc23)C1 (centres undefined)	5	3
19	CCNC(=O)N1CC(C)(C)SC12C(=O)N(Cc1ccccc1C)c1ccc(Cl)cc12 (centres undefined)	-7	-5
20	COC(=O)c1ccc(NC(=O)CSc2nccn3nc(-c4ccccc4OC)cc23)cc1	1	0
21	COc1ccc2oc(=O)n(C3CCN(C(=O)CC(C)C)CC3)c2c1	-11	-3
22	CCC(C(=O)O)n1nc(C)n2c(cc3sccc32)c1=O (centres undefined)	-10	-9
23	O=C(NCc1cccnc1)c1ccc(SCc2ccccc2)nc1	-9	-15
24	COC(=O)NCCN(C(=O)OC)C(=O)c1cc2ccccc2oc1=O	-1	-6
25	COc1ccc(C(=O)NCCc2nnc3ccccn23)cc1	2	1

New compounds follow
#	Molecule	NPYLR7 ag	NPYLR7 ag max-min
26	Cc1nnc(-c2cc3ccccc3n2Cc2ccc(F)cc2)o1	-11	-5
27	Nc1cc(-c2cccc(C(F)(F)F)c2)nn1-c1ccc(C(=O)Nc2ccccc2)cc1	-6	-8
28	Cc1ccc(OCC(=O)n2cnnc2N)c(Br)c1	10	3
29	CC1=NC2=C(C(=O)CC(c3ccccc3)C2)C(c2ccc(C)cc2)C1C(=O)OC1CCCCC1 (centres undefined)	-13	-15
30	CCOC(=O)C1=C(C)N=c2s/c(=C\c3cccc(OC)c3)c(=O)n2C1c1ccc(Cl)cc1 (centres undefined)	-5	-16
31	O=C(NCc1ccco1)C1COC2(CCN(C(=O)c3ccco3)CC2)N1C(=O)c1ccc(F)cc1 (centres undefined)	0	9
32	O=C(c1ccc(Cl)c(Cl)c1)N1CCC(c2nc(-c3ccncc3)no2)CC1	6	8
33	CNC(=O)CN1CCN(C(=O)C(C)=C(C)C)CC1	0	1
34	Cc1cccc(C)c1OCc1cc(C(=O)N2CCN(Cc3nccn3C)CC2)no1	5&11	4&6
35	CC(C)Oc1cc(F)ccc1-c1cc(C(=O)NCC2CCCCC2)[nH]n1	4	3
36	CCS(=O)(=O)c1ccc(CC(=O)N=c2sc3cc(C)cc(C)c3n2C)cc1	-7	-13
37	COc1ccccc1NC(=O)CSc1nc(=O)n(CCCN(C)C)c2c1CCC2	0	-2
38	CSc1nnc(CC2CCN(C(=O)c3ccc(C)cc3F)CC2)n1C	-3	-7
39	O=c1c(-c2ccc(Cl)cc2)[n+]([O-])c2ccccc2n1OCc1c(F)cccc1F	-10	-16
40	Cc1c(C(=O)NCc2ccc(Cl)c(Cl)c2)sc(=O)n1Cc1ccc(S(=O)(=O)N(C)C)cc1	0	-3
41	Cc1nc(-c2ccccn2)[nH]c(=O)c1CC(=O)OC(C)c1ccc(F)cc1F (centres undefined)	3	2
42	O=C(c1ccccc1C(F)(F)F)N1CCC(c2nc(-c3ccccc3F)no2)CC1	17	7
43	CCOC(=O)c1ccc2c(c1)nc(SCc1ccc(Cl)cc1)n2Cc1ccc(C(F)(F)F)cc1	-4	-4
44	O=C(c1ccc(Cn2cnnn2)cc1)N1CCCC(Nc2ccc3c(c2)OCO3)C1 (centres undefined)	3	1
45	O=S(=O)(CCc1ccccc1)c1ncn[nH]1	5	4
46	CCOc1sc2nc(C)n(CC(=O)N(CC)CC)c(=O)c2c1C	-4	-2
47	CC(=O)c1cccc(NC(=O)C(C)N(C)Cc2cccc(Cl)c2Cl)c1 (centres undefined)	5	2
48	O=C1CC(c2ccc(F)cc2)Sc2nc(C34CC5CC(CC(C5)C3)C4)nn21 (centres undefined)	-5	-1
49	Cc1noc(Cl)c1CCC(=O)NC(CC(C)C)c1ccccc1 (centres undefined)	3	0
50	C=Cc1ccc(CN2C(=O)C(C)Oc3cc(Cl)ccc32)cc1 (centres undefined)	5	5

More results follow.
#	Molecule	NPYLR7 ag	NPYLR7 ag max-min
51	CC(=O)c1ccc(OCC(O)CN2CCCC3CCCCC32)cc1 (centres undefined)	2	23
52	Cn1cc(-c2ccc(C(=O)N3CCC(CN4CCCC4=O)CC3)cn2)cn1	3	3
53	CC1ON=C(c2ccco2)N(Cc2ccc(S(C)(=O)=O)cc2)C1=O (centres undefined)	5	4
54	CCC(C)Sc1ccc(NC(=O)C(C)S(=O)(=O)C(C)C)c(C)c1 (centres undefined)	4	-17
55	Cc1cc(/C=C/C(=O)N2CSCC2C(=O)N2CCCC2)c(C)n1-c1ccccc1 (centres undefined)	1	6
56	O=C(c1cccc(-c2nc3ccccc3[nH]2)c1)N1CC[C@H]2CC[C@@H](C1)N2	2	-4
57	CCc1cccc2c(C(CC(=O)NCCN(C)C)c3ccccc3Cl)c[nH]c12 (centres undefined)	18	13
58	Cc1ccc(C(=O)N(Cc2cccnc2)c2nc3cc4c(cc3s2)OCO4)cc1	-8	-1
59	Cc1ccc2nc(-c3ccccc3)oc(=O)c2c1	1	8
60	O=C(NNc1ncccn1)c1cccc2c1OCCO2	3	4
61	CCOC(=O)c1cc(-c2ccc(N3CCN(C(=O)[C@@H]4C[C@H]4c4ccccc4)CC3)cc2)n(-c2ccc(OC)cc2)n1	16	8
62	Nc1nc(Cl)cc(NCc2cc(-c3ccccc3)on2)n1	-1	-4
63	COC(=O)C1C(=N)OC2=C(C(=O)CCC2)C1c1cccc(F)c1 (centres undefined)	0	-8
64	CC(=O)C(C)Sc1nc2c(c(=O)n(C)c(=O)n2C)n1Cc1ccccc1Cl (centres undefined)	18	4
65	NC(CNS(=O)(=O)c1ccccc1Cl)c1ccccc1 (centres undefined)	-5	398
66	COc1ccc2c(c1)N(C(=O)C1CC1c1ccc(Cl)cc1)CCO2 (centres undefined)	1	29
67	O=C(C1COc2ccc(Cl)cc2C1)N1CCN(S(=O)(=O)c2ccc([N+](=O)[O-])cc2)CC1 (centres undefined)	3	2
68	COc1ccc(CCN2CCCn3c2nc2c3c(=O)n(Cc3ccccc3F)c(=O)n2C)cc1OC	0	33
69	CCc1csc(CNC(=O)c2cc(C)c(OC)c(C)c2)n1	0	1
70	O=C(Nc1ccc(N2CCCC2)c(C(=O)NCC2CCCO2)c1)c1ccc2ccccc2c1 (centres undefined)	18	22
71	CC1(C)OCC(CNC(=S)NCc2ccc(F)cc2)O1 (centres undefined)	-21	-25
72	CCSc1nc(N2CCOCC2)c2cnn(CCNC(=O)c3ccco3)c2n1	4	1
73	O=C(NCC(=O)N1CCN(S(=O)(=O)c2cc(F)ccc2F)CC1)C1CCCCC1	4	2
74	C=CCN1CC2=C(C1=O)C(c1cc(OC)c(OC)c(OC)c1)NC(=O)N2 (centres undefined)	3	7
75	COCC(=O)NCc1nnnn1C1CCCCC1	4	2

Additional records.
#	Molecule	NPYLR7 ag	NPYLR7 ag max-min
76	Cc1cc(C)n(-c2cccc(CN3CCC(O)(Cc4cc(-c5ccccc5)no4)CC3)c2)n1	-6	-5
77	O=C(O)/C=C\C1CC=CCC1 (centres undefined)	-1	-6
78	C=C(C)Cn1c(=O)c2c(nc3n(-c4ccc(C)cc4)c(C)cn23)n(C)c1=O	8	1
79	COc1ccc(C2CC(c3ccccc3F)=NN2C(=O)CN2CCc3ccccc3C2)cc1 (centres undefined)	-8	-4
80	CCCCn1cnc2c1c(=O)[nH]c(=O)n2CCC	-1	5
81	Cc1nccn1CCNC(=O)c1ccc(C(C)(C)C)cc1	19	16
82	CC(C)(C)c1ccc(OCC(=O)NN=C2CCCC2)cc1	-7	-11
83	c1ccc2c(c1)[nH]c1nc3nnnn3nc12	-4	-5
84	CC(C)CN(Cc1cccn1C)C(=O)CN(C(=O)c1ccc(-c2ccccc2)cc1)C1CC1	1	23
85	COCC(O)CN(Cc1cccn1Cc1ccc(C(C)(C)C)cc1)CC1CCCCC1 (centres undefined)	-3	-2
86	N#Cc1ccccc1-c1ccc(COc2coc(CN3CCN(C(=O)CC4NC(=O)NC4=O)CC3)cc2=O)cc1 (centres undefined)	3	-2
87	Cc1cc(N2CCN(Cc3ccccc3)CC2)nc(SCc2ccc(C(=O)N3CCCC3)o2)n1	-2	8
88	Cc1nn(C2CCS(=O)(=O)C2)c2nc(-c3ccccc3)cc(C(=O)NC3CCCCCC3)c12 (centres undefined)	6	11
89	CC(NC(=O)CCN(Cc1ccco1)c1nc(-c2ccco2)nc2ccccc12)c1ccccc1 (centres undefined)	19	26
90	CC(=O)c1ccc(OCc2c(-c3ccccc3)nnn2CC(=O)NS(=O)(=O)c2ccccc2C)cc1	5	2
91	O=c1[nH]c(=O)c2sc3ncc4c(c3c2[nH]1)CCC4	-1	-2
92	CCCNC(=O)CCCCn1c(=O)c2ccccc2n(CC(=O)N2CCOc3ccc(C)cc32)c1=O	16	7
93	O=C(CNC(=O)C1CCCCC1)NCC(=O)Nc1ccc(F)c(F)c1F	-4	7
94	CCOC(=O)N1CCN(C(=O)c2cc(-c3ccccc3OC)nc3cc(-c4ccccc4)nn23)CC1	-7&5	-7&12
95	CCOC(=O)N1CCN(C(=O)Cc2csc(NC(=O)CN(C(=O)C3CCCCC3)C3CC3)n2)CC1	-7	3
96	CCCc1ccc(S(=O)(=O)Nc2ccc(Br)cc2C(=O)NCCc2ccc(OC)cc2)cc1	16	10
97	O=C(CCc1ccco1)N1CCOC(COc2cccc(C(F)(F)F)c2)C1 (centres undefined)	25	29
98	Cc1nc(CC(=O)N2CCc3c(cnc(C)c3CNC(=O)/C=C/c3cccs3)C2)cs1	24	22
99	Nc1cccc(S(=O)(=O)Nc2ccc(I)cc2)c1	2	-2
100	Cc1ccc(S(=O)(=O)NCc2ccco2)cc1C(=O)OC1CCCCC1=O (centres undefined)	0	-4

Entries shown so far with a COOH group, in the order listed:
#	Molecule	NPYLR7 ag	NPYLR7 ag max-min
22	CCC(C(=O)O)n1nc(C)n2c(cc3sccc32)c1=O (centres undefined)	-10	-9
77	O=C(O)/C=C\C1CC=CCC1 (centres undefined)	-1	-6

Additional entries
#	Molecule	NPYLR7 ag	NPYLR7 ag max-min
101	CCOP(=O)(OCC)c1nc(-c2cccc3ccccc23)oc1N1CCC(C)CC1	-9	-15
102	CCN(c1ccccc1)S(=O)(=O)c1ccc(C(=O)Nc2sccc2C#N)cc1	-7	-14
103	COc1ccc(OC)c(Cc2nnc(CCC(=O)NC(C)CCn3cccn3)o2)c1 (centres undefined)	5	3
104	C=CCOC(=O)C1=C(C)N=c2sc(=Cc3ccccc3F)c(=O)n2C1c1ccc(OC)c(OC)c1 (centres undefined)	-3	-6
105	Cc1nc(NCCNC(=O)c2ccccc2C)cc(N2CCCC2)n1	-3	-3

One compound at a time, as listed above. Screens in order: NPYLR7 ag | NPYLR7 ag max-min
CCN(c1ccccc1)S(=O)(=O)c1ccc(C(=O)Nc2sccc2C#N)cc1 as listed: -7 | -14
CCOP(=O)(OCC)c1nc(-c2cccc3ccccc23)oc1N1CCC(C)CC1 as listed: -9 | -15
Cc1nc(NCCNC(=O)c2ccccc2C)cc(N2CCCC2)n1 as listed: -3 | -3
C=CCOC(=O)C1=C(C)N=c2sc(=Cc3ccccc3F)c(=O)n2C1c1ccc(OC)c(OC)c1 (centres undefined) as listed: -3 | -6

Structural class, the compounds so far with bromine
#	Molecule	NPYLR7 ag	NPYLR7 ag max-min
3	O=C(NC1CCCCC1)c1ccc(Br)c(S(=O)(=O)N2CCCCC2)c1	5	4
28	Cc1ccc(OCC(=O)n2cnnc2N)c(Br)c1	10	3
96	CCCc1ccc(S(=O)(=O)Nc2ccc(Br)cc2C(=O)NCCc2ccc(OC)cc2)cc1	16	10

These rows are one share of the data (hit frequency here may not be typical).
